Prx2 Sm inh: Schistosoma Mansoni Peroxiredoxins (Prx2); Schistosoma mansoni peroxiredoxin 2 (Prx2); S. mansoni Prx2 activity coupled to TGR/GSH (TGR is thioredoxin glutathione reductase), NADPH fluorescence loss, qHTS; some inactives read as strong as hits; Potency, µM; 0.07% of 65,000 active; AID 448, 2006; active means full or partial inhibition curve with a strong effect at the top dose; inconclusive means weaker partial or single-point curve; inactive means no accepted curve; also: series up to 57 µM; many of its hits are not listed in these tables
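Coupled assay in which S. mansoni TGR passes NADPH reducing equivalents via glutathione to Prx2, which reduces H2O2. Compounds were preincubated 15 min at room temperature with 25 nM TGR/50 nM Prx2 mix. Kinetic NADPH fluorescence loss (ex 365/em 450 nm) was monitored.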
Anthrax LT inh: qHTS Assay for Anthrax Lethal Toxin Internalization. Cells, anthrax lethal toxin internalization, FRET ratio (460/530). Potency, µM (doses to about 40 µM), inactives show at the top dose activity change, negative = inhibition, most hits filed as inhibitors. 0.67% of 70,000 active. AID 912, 2007; active = well fitted falling ratio curve with the 530 nm signal flat; inconclusive = other ratio curves, or a change in one channel alone; inactive = flat curves in the ratio and both channels; the % refers to the ratio; also: % is scaled to controls: 0 for no effect and ±100 for the full control effect; nearly all actives have a fitted effect of over 50% in size; tested in ME-180 cells; beta-lactamase reporter
* hit, by the source's call; ? = inconclusive; nt = not tested or not shown; [ ] = remark or other dose. Potency is read from the fitted curve at half-maximal effect.

Below each compound – Anthrax LT inh, Prx2 Sm inh
- COc1cccc(-n2c(SCC(=O)NCCc3ccccc3)nnc2-c2ccoc2C)c1
→ 5%, >57
- COc1ccccc1C(=O)NCCCn1cc(Br)c(C)n1
→ 3%, >57
- CC(=O)OCC(=O)Nc1ccc(Cl)cc1Cl
→ -5%, >57
- C[C@@H]1/C=C\CC(=O)OC[C@H](C)C(=O)N[C@@H](C)C(=O)OC1
→ -9%[8 µM], nt
- Cc1cccc(N2CCN(C(=O)c3ccc(Cl)c(S(=O)(=O)NCc4ccco4)c3)CC2)c1C
→ ?, >57
- CC1Cc2nc(SCC(=O)Nc3nccs3)n(Cc3ccccc3)c(=O)c2S1 (centres undefined)
→ 29%, >57
- O=C(CSc1nnc(NC2CCCCC2)s1)NC1CCS(=O)(=O)C1 (centres undefined)
→ -5%, >57
- CCCC(O)C(CC)CO (centres undefined)
→ -5%, nt
- Cc1cc(C2C(=O)CC(=O)CC2c2ccccc2)on1 (centres undefined)
→ -21%, >57
- Cc1cc(=O)n2c(C)n[nH]c2n1
→ ?, >57
- O=C(NCC1CCCO1)c1ccccn1 (centres undefined)
→ 9%, >57
- C/C(=C\C(=O)c1ccc(C)o1)Nc1ccc2c(c1)OCO2
→ ?, >57
- COc1ccc(-n2c(=O)c3ccccc3n(CC(=O)NC3CCCC3)c2=O)c(OC)c1
→ 1%, >57
- O=C(CCCCCn1c(=O)[nH]c2ccccc2c1=O)NCCCN1CCN(c2ccccc2F)CC1
→ -22%, >57
- CCOc1ccc(N2C(=O)c3cccnc3C2Nc2ccc(OC)cc2)cc1 (centres undefined)
→ 6%, >57

Remaining list, next part.
Below each compound – Anthrax LT inh, Prx2 Sm inh
- O=C(CSc1nnc(-c2ccccn2)n1Cc1ccco1)c1ccc(-c2ccccc2)cc1
→ 2%, >57
- CN(C)CCCNCCCNC(=O)c1ccccn1
→ -7%, >57
- O=C1c2cccc3cccc(c23)C(=O)N1c1nccs1
→ -4%, >57
- CC(C)CC1(C(=O)NCCN2CCOCC2)C=CCN1C(=O)c1ccccc1 (centres undefined)
→ 13%, nt
- c1cn2cc(CN3CCOCC3)nc2s1
→ ?, >57
- CS(=O)(=O)Nc1cccc(-c2nccc(NCc3cccs3)n2)c1
→ -1%, >57
- CCCSc1nnc2[nH]c(=O)cc(N)n12
→ nt, >57
- COc1ccc(CCNc2oc(Cc3ccccc3)nc2C#N)cc1OC
→ -10%, >57
- CN1CCN(C(=O)c2cnn(-c3ccccc3)c2NC(=O)c2cccs2)CC1
→ -2%, >57
- COc1c(F)c(F)c(C(=O)Nc2cccc(Cl)c2N2CCOCC2)c(F)c1F
→ -20%, >57
- CS(=O)(=O)Nc1ccc(C(=O)NCc2ccco2)cc1
→ 10%, >57
- O=C(CCSCCc1ccccn1)Nc1nccs1
→ 3%, >57
- Cc1nc(CC(=O)Nc2nc(-c3ccccc3)cs2)cs1
→ -25%, >57
- O=C(CCCOc1ccccc1)N1CCN(c2ccccn2)CC1
→ ?, >57
- O=C(NCc1ccco1)c1cc(S(=O)(=O)N2CCOCC2)ccc1Cl
→ ?, nt

Later entries.
Below each compound – Anthrax LT inh, Prx2 Sm inh
- Cc1cc(N2CCCC2=O)cc(C)c1CN1C(=O)c2ccccc2C1=O
→ -9%, >57
- CCN(CC)CCn1c(=N)n(CCO)c2ccccc21
→ ?, >57
- N#CCSc1nc2ccccc2c(=O)n1-c1ccccc1
→ ?, >57
- CCC1(C)Cc2c(C#N)c(N)n(-c3ccccc3)c(=O)c2CO1 (centres undefined)
→ 0%, >57
- N#CCCn1c(=O)c(-c2ccc(Cl)cc2)nc2cnc(Oc3cccc(Cl)c3)nc21
→ ?, >57
- COCCN1C(=O)C(=O)/C(=C(/O)c2ccc3c(c2)OCCO3)C1c1ccc(C(=O)OC)cc1 (centres undefined)
→ ?, >57
- Cc1cccc2c1Oc1ccccc1[C@@H]2NC(=O)c1ccc([N+](=O)[O-])cc1
→ -8%[8 µM], >57
- COc1cccc(C(=O)NCc2cn3ccsc3n2)c1
→ 10%, >57
- Cc1ccc(CNC(=O)C2C3C=CC(C3)C2C(=O)O)cc1 (centres undefined)
→ -1%, >57
- COc1ccc(C(=O)N2CCC3(CCCN(Cc4cc(C(F)(F)F)cc(C(F)(F)F)c4)C3)CC2)cc1
→ 10%, >57
- COc1ccc(-c2c3c(=O)n(C)c(=O)n(C)c3cn2-c2cccc(OC)c2)cc1
→ ?, >57
- c1ccc(OCCCc2nc(-c3ccccn3)no2)cc1
→ nt, >57
- CCc1ccc(O)c(N=Cc2cccc(C)c2O)c1
→ 18%, nt
- Cc1ccc(CCNC(=O)C2CCN(C(=O)N(C)C)CC2)cc1
→ 6%, >57
- CC(=O)N1CCc2cc(C(=O)CN3CCC(C)CC3)ccc21
→ 12%, >57

Going on with the list:
Below each compound – Anthrax LT inh, Prx2 Sm inh
- COc1ccc(CN=CC2=C(O)CNC2=O)cc1OC
→ -5%, >57
- CC1=C(C(=O)OC(C)C)C(c2ccc(F)cc2)NC(=O)N1 (centres undefined)
→ 14%, >57
- CCOC(=O)C1C(c2ccccc2Cl)NC(=O)N(C)C1(O)C(F)(F)F (centres undefined)
→ ?, >57
- CCN1CCC2(CCNC2)C1 (centres undefined)
→ nt, >57
- Cc1ccc(-c2cc(-c3ccc(F)cc3)nc(N)c2C#N)o1
→ 0%, >57
- O=C(c1cccc(F)c1)N1CCC2(CCCN(Cc3nccs3)C2)CC1
→ ?, >57
- COc1ccc(C(=O)CSc2nnc(-c3ccccn3)n2Cc2ccco2)cc1
→ 5%, >57
- O=C(CSc1ncnc2nc[nH]c12)N1CCN(c2ccc(Cl)cc2)CC1
→ 0%, >57
- CCCn1c(CNC(=O)Cc2ccccc2)nc2ccccc21
→ -7%, >57
- Cc1ccccc1Cc1c(C)nc2nc(SCC(=O)NCc3ccco3)nn2c1C
→ ?, >57
- C[C@@H]1O[C@H](OC2[C@@H](O)[C@H](O)C(O)[C@H](O)[C@H]2O)[C@@H](N)C[C@@H]1N=C(N)C(=O)O (some centres undefined)
→ 0%[8 µM], >57
- COc1ccc2cc(C(c3nnnn3CCc3ccccc3)N3CCCC(C)C3)c(=O)[nH]c2c1 (centres undefined)
→ -20%, nt
- COc1cccc(OC)c1C(=O)Nc1nnc(C(C)C)s1
→ ?, nt
- COC(=O)c1cccc(S(=O)(=O)N2CCCCC2)c1
→ 3%, nt
- O=C(CCCn1c(=S)[nH]c2cc3c(cc2c1=O)OCO3)N1CCN(c2ccccn2)CC1
→ ?, >57

Further records.
Below each compound – Anthrax LT inh, Prx2 Sm inh
- Cc1ccccc1NC(=O)c1cccc2nccnc12
→ 10%, >57
- COC(=NC1CCCC1)C(O)c1c[nH]c2ccccc12 (centres undefined)
→ -4%, >57
- COc1ccccc1NC(=O)NC1(C(=O)N2CCC(O)CC2)CCCCC1
→ 1%, >57
- Cc1ccc(S(=O)(=O)NCC(=O)N(CC(=O)NCC2CCCO2)Cc2ccccc2)cc1 (centres undefined)
→ 3%, >57
- Cc1ccc2nc(Nc3ncc4c(n3)CCCC4=O)nc(C)c2c1
→ 1%, >57
- O=c1[nH]cc(F)c(=O)[nH]1
→ ?, >57
- CCCn1c(=O)c2ccccc2n2c(SCc3c(C(=O)OCC)oc4ccccc34)nnc12
→ 13%, >57
- COc1ccccc1-c1cc(NCc2cccs2)ncn1
→ 0%, >57
- O=C(O)c1[nH]c(=O)[nH]c(=O)c1CN1CCCCC1
→ ?, >57
- CC(C)(C)SCCNS(=O)(=O)c1ccccc1
→ -11%, nt
- COc1ccc(CC(NC(C)=O)C(=O)NC2CCN(C(=O)NCc3ccccc3)CC2)cc1 (centres undefined)
→ -9%, >57
- COc1ccc2nc(NCc3ccccc3)[nH]c2c1
→ -14%, >57
- CC(=O)c1cccc(-n2c(CCC(=O)O)ccc2-c2cccs2)c1
→ -15%, >57
- CCOC(=O)C(C(=O)Nc1ccccc1)C1CCCCC1 (centres undefined)
→ -25%, nt
- O=C(NC1CC1)c1ccc(-c2nc3ccccc3s2)s1
→ -7%, >57

Carrying on.
Below each compound – Anthrax LT inh, Prx2 Sm inh
- CSc1ccc(-c2c(C#N)c(N)nc3c2c(C)nn3-c2ccccc2)cc1
→ 1.3µM*, >57
- COC(=O)CCC(=O)Nc1ccc(OC)cc1
→ -9%, >57
- O=C1C2C3C=CC(C3)C2C(=O)N1Cc1cccnc1 (centres undefined)
→ -4%, >57
- Cn1c(=O)c2c(nc(CN3CCOCC3)n2CCCc2ccccc2)n(C)c1=O
→ -4%, >57
- Cc1ccc(NC(=O)NC(=O)N(c2ccccc2)S(C)(=O)=O)cc1
→ 6%, >57
- CCOC(=O)c1c(C)n(C)c2ccc(OCC(O)Cn3nc(C)cc3C)cc12 (centres undefined)
→ nt, >57
- O=C(COC(=O)C12CC3CC(CC(O)(C3)C1)C2)N1CCN(S(=O)(=O)c2ccc(Cl)cc2)CC1
→ 2%, >57
- c1ccc(-c2ccc(N3CC4(CCNCC4)C3)cc2)cc1
→ 13µM*, >57
- CCOc1cc(C(=O)Nc2cnccn2)cc(OCC)c1OCC
→ ?, >57
- COC(=O)C1CCN(C(=O)CN2C(=O)NC(CCc3ccccc3)C2=O)CC1 (centres undefined)
→ -2%, >57
- CCn1c(SCc2nc3ccccc3nc2C)nnc1-c1cccs1
→ 7%, >57
- CCCc1[nH]nc2c1C(c1ccc(OC(=O)N3CCOCC3)c(OC)c1)C(C#N)=C(N)O2 (centres undefined)
→ ?, >57
- O=C(Nc1ccc(Cl)cc1)c1ccc2c(c1)OCO2
→ -3%, >57
- O=C(NCCCN1CCC(Cc2ccccc2)CC1)C1CC(=O)N(C2CCCC2)C1 (centres undefined)
→ -25%, >57
- O=C(NC1CC2CCCC(C1)N2S(=O)(=O)c1ccccc1)c1ccccc1 (centres undefined)
→ ?, >57

Continued:
Below each compound – Anthrax LT inh, Prx2 Sm inh
- COc1cccc2c1C(=O)c1c(O)c3c(c(O)c1C2=O)C[C@@](O)(C(=O)CO)C[C@@H]3O[C@H]1C[C@H](N)[C@H](O)[C@H](C)O1
→ 12%, nt
- Cc1onc(-c2ccccc2)c1C(=O)Nc1ccc2c(c1)OCCO2
→ 21%, nt
- COc1ccccc1CN1CC[C@@]2(CCCN(C(=O)c3ccco3)C2)C1
→ -2%, >57
- CN(C#N)c1nc(N2CCOCC2)nc(N2CCOCC2)n1
→ 14%, >57
- CCOC(=O)c1sc(NC(=O)CCSC)nc1C
→ -30%, nt
- Cc1cc(NC(=O)CSc2nccn2-c2ccc(Cl)cc2)no1
→ -2%, >57
- O=c1oc2ccccc2cc1C1=Nn2c(nnc2-c2cccnc2)SC1
→ 11%, >57
- COc1ccc(NC(=O)c2oc3ccccc3c2NC(=O)c2ccco2)cc1
→ ?, >57
- O=C1NC(=O)C2(COC3(CCCC3)OC2)S1
→ -6%, >57
- N[C@@H](CSC(=O)c1ccccc1)C(=O)O
→ -10%[8 µM], >57
- CCCC(=O)Nc1ccc(N2CCCCC2)cc1
→ 0%, nt
- CCn1c(SCC(=O)c2ccc(Cl)s2)nnc1-c1cccs1
→ -8%, >57
- COc1ccc(CN(C(=O)c2ccccc2OC)C2CCS(=O)(=O)C2)cc1 (centres undefined)
→ ?, >57
- Cc1cc(=O)[nH]c(/N=C(/NC(=O)c2ccccc2)Nc2ccc3c(c2)OCCO3)n1
→ -5%, >57
- CC(=O)Nc1cccc(NC(=O)C2CCCN2C(=O)Nc2ccc(C)cc2)c1 (centres undefined)
→ 9%, >57

Rewritten in markdown: 4 of the compounds above
| structure | Anthrax LT inh | Prx2 Sm inh |
| --- | --- | --- |
| CCc1ccc(O)c(N=Cc2cccc(C)c2O)c1 | 18% | nt |
| Cc1ccc(-c2cc(-c3ccc(F)cc3)nc(N)c2C#N)o1 | 0% | >57 |
| Cc1ccc(CCNC(=O)C2CCN(C(=O)N(C)C)CC2)cc1 | 6% | >57 |
| COC(=O)CCC(=O)Nc1ccc(OC)cc1 | -9% | >57 |

Additional records follow.
Below each compound – Anthrax LT inh, Prx2 Sm inh
- O=S(=O)(c1ccc(NC2CCCCC2)cc1)N1CCOCC1
→ -8%, >57
- Cc1ccc(N2CCN(CC(O)COC3CCCCC3)CC2)cc1 (centres undefined)
→ 0%, >57
- Cc1nnc(NC(=O)CSc2nnc(Cc3cccn3C)n2C)s1
→ 9%, ?
- Cc1nc(N2CCOCC2)c2nc(-c3ccccc3)n(CCCN3CCCCC3C)c2n1 (centres undefined)
→ 9%, nt
- CCC(c1nnnn1Cc1ccc2c(c1)OCO2)N1CCN(c2ccc(F)cc2)CC1 (centres undefined)
→ -28%, >57
- Cc1n[nH]c(C)c1S(=O)(=O)N1CCCC(C(=O)Nc2nccs2)C1 (centres undefined)
→ 6%, >57
- CCCCCCCC(=O)OCC(COC(=O)CCCCCCC)OC(=O)CCCCCCC
→ -10%, nt
- Oc1ccccc1-c1nnc(COc2ccccc2)o1
→ -20%, >57
- COc1ccc(-c2nc3cnc(N(C)C)nc3n(C)c2=O)cc1
→ ?, >57
- CNC(=O)CN1C(=O)CSc2ncccc21
→ 14%, >57
- CCc1c(C)nc(Nc2nc(C)c3cc(OC)ccc3n2)[nH]c1=O
→ 5%, >57
- NC(=O)C1CCN(CC(=O)N2c3ccccc3CCc3ccccc32)CC1
→ 2%, >57
- Cc1ccc(OCCN2CCCCCC2)c(C)c1
→ -2%, nt
- COc1ccc2c(Cc3c4ccccc4cc4ccccc34)cncc2c1O
→ ?, >57
- CN(C)C(=O)N1CCCC(C(=O)NCc2ccccc2Cl)C1 (centres undefined)
→ -10%, >57

An excerpt; the hit share may differ from the screen's.
